Measles inh – inhibitors of measles virus growth in infected cells; infected Vero cells, GFP fluorescence, 64 h; stronger effect = lower value; z-score (test concentration not listed); 33,000 compounds, 0.1% hits;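 active = z-score under -3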;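 also: score is relative to mean and SD of the compound wells of a plate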
Starred values were filed as active, the others as inactive. An excerpt (hit frequency here may not be typical).

A first look, 6 compounds:
SMILES | Measles inh
C=CCOc1ccc(C2N3CC4(C)CN2CC(CCC)(C3)C4=O)cc1 (stereo unspecified) | 2.2
O=C(Nc1ccccc1)c1cc(S(=O)(=O)N2CCC(=O)C3CCCCC32)ccc1Cl (stereo unspecified) | -0.19
CCCCn1c(-c2ccc(OC)cc2)nc2ccccc21 | 0.49
COc1ccc2c(c1)CCc1c(C(=O)NCCN3CCOCC3)noc1-2 | -0.74
CC(C)(C)c1nnc(Nc2ccc3c(c2)OCO3)[nH]c1=O | -0.67
O=C(CSc1nnc(CNC(=O)c2ccco2)o1)Nc1cccc2ccccc12 | 0.79

Main list (from the top)
SMILES | Measles inh
C=CCOc1ccc(C2N3CC4(C)CN2CC(CCC)(C3)C4=O)cc1 (stereo unspecified) | 2.2
O=C(Nc1ccccc1)c1cc(S(=O)(=O)N2CCC(=O)C3CCCCC32)ccc1Cl (stereo unspecified) | -0.19
CCCCn1c(-c2ccc(OC)cc2)nc2ccccc21 | 0.49
COc1ccc2c(c1)CCc1c(C(=O)NCCN3CCOCC3)noc1-2 | -0.74
CC(C)(C)c1nnc(Nc2ccc3c(c2)OCO3)[nH]c1=O | -0.67
O=C(CSc1nnc(CNC(=O)c2ccco2)o1)Nc1cccc2ccccc12 | 0.79
O=P(Cc1cc[n+]([O-])cc1)(c1ccccc1)c1ccccc1 | 0.66
O=c1[nH]c2ccccc2c2ocnc12 | -0.29
CCCCCCOc1ccc(N2C(=O)CC(N3CCN(C)CC3)C2=O)cc1 (stereo unspecified) | 0.14
NS(=O)(=O)C1CCS(=O)(=O)C1 (stereo unspecified) | -0.01
CSc1nc(C)cc(Oc2ccc(=O)n(C)n2)n1 | -0.13
CCOc1ccccc1-c1cc(C(=O)OC)c2ccccc2n1 | -0.34

Continued, overlapping the part above by two compounds.
SMILES | Measles inh
CSc1nc(C)cc(Oc2ccc(=O)n(C)n2)n1 | -0.13
CCOc1ccccc1-c1cc(C(=O)OC)c2ccccc2n1 | -0.34
Fc1ccc(C2Nc3ccc4ccccc4c3C3C=CCC32)cc1 (stereo unspecified) | -0.58
COc1ccccc1CNC(=O)c1ccc2c(c1)nc(C)n2-c1ccc(OCc2ccccc2)cc1 | 0.36
O=C(NCCOc1cccc2cccnc12)c1cc(C(F)(F)F)cc(C(F)(F)F)c1 | -0.67
CC(c1ccccc1)N1CC(C(=O)NC2CCCC2)CC1=O (stereo unspecified) | 0.6
O=C1NC(c2ccc(O)cc2)C(C(=O)c2ccccc2)C(O)(C(F)(F)F)N1 (stereo unspecified) | -0.45
CCOC(=O)c1c(NC(=O)CSc2nc3ccccc3o2)sc2c1CCCC2 | -1
COC(=O)c1c(C)[nH]c(C(=O)CSc2ncnc3sc4c(c23)CCC4)c1C | 1.5
COc1ccc(N2CCN(C(=O)NC3CCCCC3)CC2)cc1 | -0.86
Fc1ccccc1-n1cc(-c2ccccc2)[nH]c1=S | 0.44
COc1ccc(S(=O)(=O)NCCC(=O)NCc2ccc(C)cc2)cc1 | -1
COc1cc(Nc2nc(-c3ccccc3Cl)nc3ccccc23)cc(OC)c1 | -0.28
CCc1ccc(NC2=C(Cl)C(=O)N(c3cccc(C(F)(F)F)c3)C2=O)cc1 | 0.48
COc1ccc2nc3oc(C(=O)N4CCN(c5ccccn5)CC4)cc3cc2c1 | 0.36
Cc1ccc(-n2ncc3c(Nc4ccc(C)c(C)c4)ncnc32)c(C)c1 | -0.06
COc1ccccc1C=C1CCCC2=C1Nc1ncnn1C2c1ccccc1OC (stereo unspecified) | -0.25
COc1ccc(C(=O)Oc2c(Sc3ccc(C)cc3)c(C)nn2C(C)(C)C)cc1OC | -0.85
CC(=O)c1sc2nc3c(cc2c1N)CCC3 | -1.1
CCc1ccccc1NC(=O)COc1ccc(OC)cc1 | -0.34
O=C1OC2c3ccccc3C(=O)N2c2ccccc21 (stereo unspecified) | 0.51
O=C(COC(=O)c1ccc(Cl)c([N+](=O)[O-])c1)c1ccc(Cl)cc1 | 1.6
CCCCNC(=O)c1cc(=O)[nH]c2ccc(S(=O)(=O)N3CCCCC3CC)cc12 (stereo unspecified) | -0.78
COc1ccc(N2CCC(CNC(=O)Nc3ccc(Cl)cc3)C2)cc1 (stereo unspecified) | 0.71
Cc1ccc(-c2n[nH]c(=O)c3ccccc23)cc1S(=O)(=O)N1CCN(C)CC1 | -0.09
COC(=O)c1ccc(-n2nnnc2SCc2c(C)ccc3ccccc23)cc1 | -0.89
COc1cc(Nc2cc(N3CCN(C)CC3)c3noc4c3c2C(=O)c2ccccc2-4)cc(OC)c1OC | -0.33
Cc1cccc(NC(=O)COc2ccc(Cl)c(C)c2)n1 | -0.38
O=C1CC(NCc2ccco2)C(=O)N1c1ccc(-c2nc3ccccc3o2)cc1 (stereo unspecified) | -0.87
COc1ccc(C2CC(=O)C3=C(C2)NC(C)=C(C(=O)OCCOc2ccccc2)C3c2cc3c(cc2Cl)OCO3)cc1 (stereo unspecified) | -0.44
CC[n+]1c(C=C2Sc3ccc(C)cc3N2CCO)ccc2ccccc21 | 1.7
COc1ccc(NC(=O)c2cnn3c(C(F)(F)F)cc(-c4ccc(OC)c(OC)c4)nc23)c(OC)c1 | 0.81
C=CCOc1ccc(C2N3CC4(C)CN2CC(C)(C3)C4=O)cc1 (stereo unspecified) | -0.57
COc1cc(-n2c(=O)c3ccccc3n(CC(=O)Nc3cccc(C(F)(F)F)c3)c2=O)cc(OC)c1OC | -0.18
CCOC(=O)c1cnc2cc(C(F)(F)F)ccc2c1Nc1cc(Cl)ccc1OC | 0.22
Cc1ccc(-c2csc(NC(=O)c3ccccc3NS(=O)(=O)c3ccc(C)cc3)n2)cc1 | -0.8
COc1ccccc1OC1=NS(=O)(=O)c2cc([N+](=O)[O-])ccc21 | 0.64
Cc1ccc(S(=O)(=O)NCc2ccc(C(=O)NCc3ccc(F)cc3)cc2)cc1 | 1.1
CC1CCCCN1CCNc1nc(=S)[nH]c2ccccc12 (stereo unspecified) | 0.83
CC1CCC(C(=O)NC(C(=O)N2CCC(N3CCCCC3)CC2)C(C)C)CC1 (stereo unspecified) | -2.5
Cn1c(=O)c2cc(C(=O)NCCC3=CCCCC3)sc2c2ccc(Cl)cc21 | -0.54
CCc1cc(-c2[nH]ncc2-c2ccc([N+](=O)[O-])cc2)c(O)cc1OC | -1.3
CN(CC1CCCO1)c1nc(-c2ccc([N+](=O)[O-])cc2)cs1 (stereo unspecified) | 0.23
Cc1cc(=O)oc(C)c1C(=O)NCc1ccco1 | 1.5
CCOC(=O)CSc1cc(NCCO)c([N+](=O)[O-])c2nonc12 | -0.66
COc1ccccc1N1CCN(S(=O)(=O)c2ccccc2C)CC1 | -0.02
COc1ccc2nc3sc(C(=O)Nc4ccccc4C)cc3cc2c1 | -0.79
COc1ccc(N2C(=O)C(N3C(=O)c4cccc([N+](=O)[O-])c4C3=O)C2c2ccc3c(c2)OCO3)cc1 (stereo unspecified) | 0.83
CCCC(=O)N1CCN(c2ccc(C(F)(F)F)cc2[N+](=O)[O-])CC1 | -0.1
O=C1CSC(c2ccc(OC(F)F)cc2)N1c1ccc(Oc2ccccc2)cc1 (stereo unspecified) | -0.03
OC(CN1CCCC1)Cn1c2ccccc2c2ccccc21 (stereo unspecified) | 0.43
Cc1ccc2nsnc2c1S(=O)(=O)Nc1ccc(Br)cc1 | -1.8
CN1C(=O)c2ccccc2Sc2ccc(C(=O)NCc3ccccc3Cl)cc21 | -1.2
COCCNC(=O)c1cc(Nc2ccccc2OC)nc2ccccc12 | -0.33
O=c1c2sccc2nc(SCc2cc(=O)n3ccccc3n2)n1-c1ccc(Br)cc1 | -0.24
CC(C)C(=O)OCCN1C(=O)c2cccc3c(N4CCCCC4)ccc(c23)C1=O | 0.97
Cc1ccc(CNC(=O)c2cccc(N3CCCC3=O)c2)cc1 | -0.47
CC1(C)C(C=C(Cl)Cl)C1C(=O)Nc1ccc(S(=O)(=O)Nc2ncccn2)cc1 (stereo unspecified) | 0.07
CCCCN(C)C(=O)c1ccc(CS(=O)(=O)Cc2ccccc2Cl)o1 | 0.12
COc1ccc(Oc2ccc3[nH]c4c(c3c2)CCCC4=NCCO)cc1 | -0.12
Cc1ccc2c(c1)N(CC(=O)N1CCOCC1)C(=O)CO2 | 0.78
CCC(CC)C(=O)Oc1ccc2c(=O)c(Oc3cc(C)ccc3C)coc2c1 | -0.08

Other entries follow:
SMILES | Measles inh
COc1cc2ccccc2cc1C(=O)Nc1cccc(-c2nc3ccccc3o2)c1 | -0.27
c1ccc(C2CC(c3ccco3)n3ncnc3N2)cc1 (stereo unspecified) | -0.32
CCOc1ccc(C2=NN3C(C2)c2cccc(OC)c2OC3c2cccc(OC)c2)cc1 (stereo unspecified) | 1.2
Cc1ccc(-c2cc(C(F)(F)F)n3ncc(C(=O)N4CCN(Cc5ccccc5)CC4)c3n2)cc1 | 0.1
CS(=O)(=O)N(Cc1ccccc1Cl)c1ccc(C(N)=O)cc1 | -0.63
COc1cccc(-n2ccnc2SCC(=O)Nc2cc(OC)ccc2OC)c1 | -0.99
O=C(Nc1c(-c2cccs2)nc2ccccn12)c1cccc(F)c1 | 0.22
O=C(CSc1nccn1-c1ccc(Cl)cc1)Nc1nc2ccccc2s1 | 0.87
Oc1ccc(Cl)cc1C1CC(c2ccc3c(c2)OCO3)=NC(c2ccccc2Cl)N1 (stereo unspecified) | 0.88
O=C1C(Cl)=C(Cl)C(=O)N1CCOCCN1C(=O)C(Cl)=C(Cl)C1=O | -1
Cc1ccc(OCCNC(=O)C(=O)NCc2ccco2)cc1 | 0.6
COc1ccc(NC(=O)c2cc(-c3ccc(Cl)cc3)on2)cc1 | 0.12
COc1ccc(N2C(=O)C3C4c5ccccc5C(c5ccccc54)C3C2=O)cc1 (stereo unspecified) | 0.55
Cc1nnc(NC(=O)CSc2nc3c(c(=O)n2-c2ccccc2)SCC3)s1 | -2.2
CC(=O)c1cc(C#N)c(SCC(=O)C(C)(C)C)nc1C | -0.39
CC1=C(C(=O)OCCc2ccccc2)C(c2ccc(C)o2)C2=C(CC(C)(C)CC2=O)N1 (stereo unspecified) | -1.3
CCCCCCc1ccc(C(=O)Nc2cccc(C)c2)cc1 | -0.24
COC(=O)C(C)Sc1nc2c(c(=O)[nH]c(=O)n2C)n1CCCc1ccccc1 (stereo unspecified) | -0.65
CC1=C(C(=O)OCCOc2ccccc2)C(c2cccs2)C2=C(CC(C)(C)CC2=O)N1 (stereo unspecified) | 0.72
CN(C)c1ccc(-c2nc3cc(NCc4cc(Br)ccc4O)ccc3o2)cc1 | 0.02
CC1CCC(NC(=O)c2cc(-c3cccnc3)nc3ccccc23)CC1 (stereo unspecified) | 1.9
Cc1nnc(NC(=O)c2ccc(S(=O)(=O)N3CCCCCC3)cc2)o1 | -1.6
Cc1cc(=O)oc2ccc(OC(=O)c3ccc([N+](=O)[O-])cc3)cc12 | -0.4
Cc1cccn2cc(-c3ccc(S(=O)(=O)N(C)C)cc3)nc12 | -1.2

Grouped by structure: the entries above containing a tert-butyl group.
SMILES | Measles inh
CC(C)(C)c1nnc(Nc2ccc3c(c2)OCO3)[nH]c1=O | -0.67
COc1ccc(C(=O)Oc2c(Sc3ccc(C)cc3)c(C)nn2C(C)(C)C)cc1OC | -0.85
CC(=O)c1cc(C#N)c(SCC(=O)C(C)(C)C)nc1C | -0.39

(cont.)
SMILES | Measles inh
COc1ccccc1N1CCN(C(=O)c2cccc(-n3c(=S)[nH]c4cc(Cl)ccc4c3=O)c2)CC1 | 0.86
Oc1c(C(Nc2nccs2)c2cccnc2)ccc2cccnc12 (stereo unspecified) | -0.21
CCOc1ccc(NC(=O)c2ccccc2C(=O)O)cc1 | 2.1
Cc1cc(C)c(S(=O)(=O)Nc2ccc(Cl)c([N+](=O)[O-])c2)c(C)c1 | -1.2
CC1=C(C(=O)OCCc2ccccc2)C(c2ccc3c(c2)OCO3)NC(=O)N1 (stereo unspecified) | -0.25
CCOC(=O)C1=C(C)NC2=C(C(=O)CC(C)(C)C2)C1c1coc2ccc(C)cc2c1=O (stereo unspecified) | -0.29
CCOC(=O)C1=C(N)N(c2ccccc2)C2=C(C(=O)CCC2)C1c1cccnc1 (stereo unspecified) | 0.31
O=C(Nc1ccccc1[N+](=O)[O-])c1cccc(S(=O)(=O)Nc2cccc(O)c2)c1 | -1.5
CCC1CCCCN1S(=O)(=O)c1ccc(C(=O)Nc2nnc(-c3ccc(Cl)s3)o2)cc1 (stereo unspecified) | -0.87
O=c1c2cc(F)ccc2[nH]c(=S)n1Cc1cccc(Cl)c1 | -2
O=C(O)c1cccc(S(=O)(=O)NCc2ccccc2)c1 | -0.51
COc1cccc(C2=CC(c3ccccc3Cl)n3ncnc3N2)c1 (stereo unspecified) | -0.53

Laid out differently: results already given.
Measles inh	mol
0.31	CCOC(=O)C1=C(N)N(c2ccccc2)C2=C(C(=O)CCC2)C1c1cccnc1 (stereo unspecified)
2.1	CCOc1ccc(NC(=O)c2ccccc2C(=O)O)cc1

(listing goes on)
SMILES | Measles inh
CC1=CC(C)(C)N2C(=O)C(=O)c3cc(OC(=O)Cc4ccccc4)cc1c32 | 0.64
Cc1ccc([N+](=O)[O-])cc1N=Cc1ccc([N+](=O)[O-])o1 | 2.2
O=C(C[n+]1ccn2cccc2c1-c1ccccc1)c1ccccc1 | -1.4
COc1ccc(C2Nc3ccccc3NC3=C2C(=O)CC(C)(C)C3)c(OC)c1 (stereo unspecified) | 2.1
CC(C)C(NS(=O)(=O)c1cccs1)C(=O)N1CCN(c2ccc(F)cc2)CC1 (stereo unspecified) | -0.87
CCc1c(-c2ccccc2)nc2ccccc2c1C(=O)NCCCOC | -1.2
CN1C(=O)c2ccccc2C(C(=O)NCc2ccccn2)C1c1cn(C)c2ccccc12 (stereo unspecified) | 0.82
Cc1ccc(NC(=O)C2C(c3ccccc3)=C2c2ccccc2)c(C)c1 | -0.55
CC1=CC(C)(C)NC(=S)N1c1cccc2ccccc12 | -0.41
CN1C(=O)c2ccccc2C(C(=O)NCc2cccnc2)C1c1c[nH]c2ccccc12 (stereo unspecified) | 2.3
